High-throughput results as filed in PubChem BioAssay.
Lassa entry inh: inhibitors of Lassa virus binding or cell entry | Potency, µM (highest dose often 37.9 µM), inactives show at the top dose activity change, negative = inhibition, actives largely listed as inhibitors | hit rate 1.2% among 300,000 | Lassa virus pseudotype entry inhibition, cell reporter; control for the full effect not named in the record; active means well fitted inhibition curve with a large enough effect; inconclusive means small, poorly fitted or top-dose-only effect, or effect the other way; inactive means flat fitted curve, though single readings scatter; tested in HEK293 cells; also: % is scaled to controls: 0 for no effect and ±100 for the full control effect; nearly all actives have a fitted effect of over 50% in size; luciferase read-out
StopGo reporter: FMDV 2A StopGo reporter, luciferase signal. human cells with a luciferase reporter of 2A StopGo recoding; control for the full effect not named in the record. Potency, µM (top dose mostly 57.9 µM), for the others: at the top dose signal change, negative = less light. hit rate 1.2% among 410,000. AID 1159524; active = well fitted falling curve with a large enough effect; inconclusive = small, poorly fitted or top-dose-only effect; inactive = no such curve, though single readings can be large or run the other way; tested in HEK293T cells; also: % is scaled to controls: 0 for no effect and ±100 for the full control effect; nearly all actives have a fitted effect of over 45% in size; luciferase light after 4 h
SARS PLpro yeast: inhibitors of SARS-CoV papain-like protease in yeast | hit rate 0.19% among 330,000 | S. cerevisiae expressing SARS-CoV PLpro, growth rescue; control for the full effect not named in the record | Potency, µM (highest dose often 32.9 µM), without a hit: at the top dose activity, positive = growth rescue; active means well fitted rising curve with a large enough effect; inconclusive means small, poorly fitted or top-dose-only effect; inactive means no such curve, though single readings can be large or run the other way; also: 0% is about no effect; nearly all actives have a fitted effect of over 55% in size; growth read by luminescence after 48 h
RE007 growth inh: less growth of the S. pombe RE007 Vpr strain | S. pombe RE007 Vpr strain, BacTiter-Glo ATP luminescence, 24 h; control for the full effect not named in the record | Potency, µM (series often up to 92.2 µM), for the others: at the top dose activity change, negative = less growth | hit rate 0.21% among 360,000 | AID 651644; active = well fitted falling curve with a large enough effect; inconclusive = small, poorly fitted or top-dose-only effect; inactive = no such curve, though single readings can be large or run the other way;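 also: % is scaled to controls: 0 for no effect and ±100 for the full control effect; nearly all actives have a fitted effect of over 50% in size; the assay follows cell death caused by Vpr and the record does not say whether a fall means rescue or toxicity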
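Fission yeast RE007 carrying one integrated HIV-1 vpr copy, seeded at OD 0.01 in PMG+AL medium with 23 nL pinned compound. Grown 24 h at 30 degrees; viability read by BacTiter-Glo luminescence after 5 min.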
Marburg entry inh: inhibitors of Marburg virus binding or cell entry; Potency, µM (highest dose often 37.8 µM), without a hit: at the highest dose activity change, negative = inhibition, most hits filed as inhibitors; Marburg virus pseudotyped entry inhibition, cell reporter; control for the full effect not named in the record; about a third of the inactives were read at about 46 µM; hit rate 1.8% among 300,000; active = well fitted inhibition curve with a large enough effect; inconclusive = small, poorly fitted or top-dose-only effect, or effect the other way; inactive = flat fitted curve, though single readings scatter; tested in HEK293 cells; about a fifth of its hits are not listed in these tables; also: % is scaled to controls: 0 for no effect and ±100 for the full control effect; luciferase read-out
Cruzain inh Det: blocks cruzain activity in presence of Triton detergent; purified cruzain, Z-FR-AMC fluorescence, 0.01% Triton; Potency, µM, without a hit: max response, negative = inhibition, actives largely listed as inhibitors; hit rate 0.43% among 200,000; AID 1478;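 also: plate controls were neutral wells for no effect and buffer without enzyme for full effect; nearly all actives have a fitted effect of over 40% in size; top concentration of the series not given in the record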
Target sequence (P25779 123-467 limits assumed): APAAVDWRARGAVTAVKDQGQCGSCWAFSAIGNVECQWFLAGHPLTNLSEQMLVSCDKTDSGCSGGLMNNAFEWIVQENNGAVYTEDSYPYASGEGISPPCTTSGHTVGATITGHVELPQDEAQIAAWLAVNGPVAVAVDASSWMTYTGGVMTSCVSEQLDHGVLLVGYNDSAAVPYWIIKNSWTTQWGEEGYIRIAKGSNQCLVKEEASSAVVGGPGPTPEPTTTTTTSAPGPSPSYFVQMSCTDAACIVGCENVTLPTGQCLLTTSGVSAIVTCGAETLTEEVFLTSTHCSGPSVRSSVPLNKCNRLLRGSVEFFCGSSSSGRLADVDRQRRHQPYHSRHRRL
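Steps: dispense cruzain (1.5 nM final) in acetate buffer pH 5.5 with DTT and 0.01% Triton X-100; pin-transfer compounds; incubate 15 min RT; add Z-FR-AMC (2 uM final); read fluorescence every 30 s, using the 60 s intensity change.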
Cruzain noTriton: cruzain (T. cruzi) inhibition without detergent; purified cruzain, Z-FR-AMC fluorescence, no detergent; Potency, µM, for inactives: max response, negative = inhibition, most hits filed as inhibitors; hit rate 2.3% among 200,000; AID 1476;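 also: plate controls were enzyme without inhibitor for no effect and buffer without enzyme for full effect; nearly all actives have a fitted effect of over 40% in size; top concentration of the series not given in the record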
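Purified cruzain at 1.5 nM, pre-incubated 15 min with compound at room temperature in 100 mM sodium acetate pH 5.5, 5 mM DTT, 0.00005% Triton X-100. Reaction started with 2 uM Z-FR-AMC; AMC fluorescence increase over 60 s gives rate.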
NS1 inh: influenza NS1 inhibition. Potency, µM (doses to about 46.1 µM), inactives show at the highest dose activity, positive = more growth. AID 2326. S. cerevisiae slowed by influenza A NS1, growth recovery by OD600. hit rate 0.4% among 270,000; active means well fitted rising curve with a large enough effect; inconclusive means small, poorly fitted or top-dose-only effect; inactive means no such curve, though single readings can be large or run the other way; also: nearly all actives have a fitted effect of over 50% in size
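Recovery from NS1-induced slow growth read by OD600 in budding yeast switched to galactose assay medium (pH 6.0, -URA) at 1:100 dilution. Compound 23 nl per well; the matching strain lacking NS1 serves as control.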
An asterisk follows results filed as active; ? = inconclusive; · = no result given; & = joins results of further samples; [ ] = dose if it differs, or a comment. Unless noted, calls follow the shape of the dose curve; as a rule, active = well fitted curve in the direction sought with a large enough effect; inconclusive = small, poorly fitted or top-dose-only effect, or another doubt; inactive = no such curve, though single readings can be large; an effect the other way counts as inactive or inconclusive. Potency is read from the fitted curve at half-maximal effect.

SMILES	Lassa entry inh	StopGo reporter	SARS PLpro yeast	RE007 growth inh	Marburg entry inh	Cruzain inh Det	Cruzain noTriton	NS1 inh
Cc1ccc(S(=O)(=O)NCC(=O)OC(C)C(=O)NCc2ccc3c(c2)OCO3)cc1 (stereo not given)	?	4%	·	5%	-10%	·	·	·
O=C(Nc1cccc(C(F)(F)F)c1)c1ccc(Cn2cc(Br)cn2)o1	2%	-27%	-11%	-15%	?	-5.4%	-9%	-108%
CCOCCn1c(CN2CCc3ccccc3C2)nc2c1c(=O)n(C)c(=O)n2C	-11%[46.1 µM]	-22%	1%	20%	8%[46.1 µM]	·	·	5%
Cc1ccc2cc(CCNC(=O)c3ccc(Br)o3)c(=O)[nH]c2c1	-29%	-19%	7%	2%	0%	-5.0%	1%	-36%
c1ccc(-c2nc(-c3nccc4ccccc34)oc2-c2ccccc2)cc1	·	19%	-1%	-8%	·	·	·	-6%
COc1ccc(-c2csc(N3C(=O)C4C5c6ccccc6C(c6ccccc65)[C@@H]4C3=O)n2)cc1 (stereo not given in full)	-6%	-16%	4%	1%	24%	1.5%	10µM*	-5%
CCN1CCN(C(=O)c2cc(COc3ccc4ncccc4c3)on2)CC1	·	?	0%	2%	-19%[46.1 µM]	·	·	-2%
CCOCCN1CCC(OC(C)=O)C(C)C1 (stereo not given)	11%	2%	0%	11%	-2%	0.8%	0%	-5%
Cc1ccccc1N1CC2=C(C1=O)C(c1ccccc1)NC(=O)N2C (stereo not given)	1%	-4%	0%	-1%	7%	·	·	-5%
COC(=O)c1c(N2C(=O)Nc3ccccc3N2O)sc2c1CCCC2	?	5%	11%	7%	?	-5.6%	-7%	14%
C/C(=N\NC(=O)CNC(=O)c1cccs1)c1ccc(Cl)c(Cl)c1	-24%[46.1 µM]	-13%	-8%	-4%	?	·	·	-26%
Cc1cnc(C(=O)NC2CC(C)(C)Cc3c2cnn3-c2cccc(F)c2)cn1 (stereo not given)	·	?	-5%	12%	·	·	·	-10%
O=C(Nc1cccc(-c2nc3cc(Cl)ccc3o2)c1)c1cc([N+](=O)[O-])ccc1N1CCOCC1	-3%[46.1 µM]	7%	·	·	6%[46.1 µM]	-2.0%	-2%	·
CC(=O)Nc1ccc(NC(=O)C(Cc2ccccc2)NS(=O)(=O)c2ccc3c(c2)oc(=O)n3C)cc1 (stereo not given)	-6%[46.1 µM]	-10%	·	·	17%[46.1 µM]	0.8%	?	·
COc1ccc(-n2c(C)csc2=S)cc1	2%	-21%	-11%	2%	-19%	-4.5%	-3%	11%
Cc1ccc2nc(NC(=O)CSc3nc(=O)n(CCCN(C)C)c4c3CCC4)sc2c1	?	11%	-10%	-8%	?	·	·	·
O=C(Nc1ccc(Cl)c(-c2nc3cc(Cl)ccc3o2)c1)c1cc([N+](=O)[O-])ccc1N1CCOCC1	9%[46.1 µM]	-1%	·	·	6%[46.1 µM]	4.8%	-18%	·
CCOc1ccccc1NC(=O)CSc1ccccc1	11%	13%	1%	-25%	?	-2.6%	4%	-35%
Cc1cc(C)c2c(CC(=O)Nc3ccccc3C(F)(F)F)coc2c1	20%[46.1 µM]	-2%	·	·	-11%[46.1 µM]	-2.9%	-10%	·
O=C(O)c1cccnc1SCc1cccc(Br)c1	·	23%	-3%	8%	·	·	·	-38%
O=C(Nc1ccc(CSc2ccccc2)cc1)c1ccco1	·	58%[activator]	-8%	-4%	·	·	·	-6%
Cc1cc2c(cc1S(=O)(=O)CCC(=O)N(C)C1CCCCC1)OCC(=O)N2	-9%[46.1 µM]	-17%&-14%	-1%	13%	·	-8.2%	-12%	3%
CNc1ccc(Cl)nn1	?	-15%	1%	7%	20%[46.1 µM]	·	·	·
Cc1nn(CC(=O)NCc2ccc(OC(C)C)cc2)c(=O)c2cc(-c3ccccc3)nn12	·	14%	0%	4%	·	·	·	-5%
CN1CCN(CC(=O)Nc2cc(N(C)C)nc3ccccc23)CC1	-28%	-21%	0%	-16%	?	·	·	1%

New compounds follow.
SMILES	Lassa entry inh	StopGo reporter	SARS PLpro yeast	RE007 growth inh	Marburg entry inh	Cruzain inh Det	Cruzain noTriton	NS1 inh
Cc1ccnc(SCCn2c(N3CCN(c4ccccc4)CC3)nc3c2c(=O)[nH]c(=O)n3C)n1	·	?	2%	-5%	·	-0.8%	-2%	-7%
Cc1ccc(CNC(=O)c2ccc(-n3cnc4cccnc43)cc2)cc1	2%[46.1 µM]	-6%	·	·	·	-2.3%	?	·
C=C(C)C(=O)Nc1cccc(C2=NOC3(C2)C[C@@H](C(N)=O)N(C(=O)/C=C/C=C/C)C3)c1 (stereo not given in full)	·	-16%	2%	4%	·	·	·	4%
N#Cc1ccc(N2CCN(C(=O)c3cccc(F)c3)CC2)c(F)c1	0%	?	-19%	-6%	-24%	-1.5%	0%	6%
COc1ccc2c(c1)CCc1sc(NC(=O)c3cccc(Br)c3)nc1-2	16%[46.1 µM]	-24%	·	·	·	-8.9%	?	·
O=C(NC1CC1)c1ccc2c(c1)N(Cc1ccc(Cl)cc1)CCS2	·	-28%	3%	-4%	·	·	·	7%
COc1ccccc1CNC(=O)c1cccc(S(=O)(=O)N2CCN(C)CC2)c1	-16%	21%	-4%	0%	-1%[46.1 µM]	·	·	·
CCOC(=O)c1cc(NC(=O)c2ccc(F)cc2)c(=O)n2c1oc1ccccc12	-3%[46.1 µM]	-3%	·	·	-4%[46.1 µM]	-0.7%	10%	·
O=C(NCCCn1ccnc1)c1ccc(OCC(F)(F)F)cc1	15%	5%	-1%	-8%	-5%	·	·	1%
CCn1c(C(=O)NCCCN2CCc3ccccc3C2)cc2sccc21	-11%	0%	-1%	-15%	-4%	-7.5%	7%	-2%
CCc1nc2ccccc2n1CC(C)C(=O)O (stereo not given)	15%	·	-6%	0%	3%	3.1%	-12%	2%
CN(C)/C=C/c1[nH]c(=O)[nH]c(=O)c1[N+](=O)[O-]	·	-4%	1%	-10%	·	·	·	-1%
O=C(COC(=O)CNC(=O)c1ccccc1F)Nc1ccc2c(c1)OCCO2	?	9%	?	6%	0%	8.9µM*	3.2µM*	10%
COC(=O)c1cccc(-n2c(C)cc(C=O)c2C)c1	4%	-17%	-2%	0%	?	-1.3%	15%	?
COc1cc(/C=N/NC(=O)c2ccc(O)cc2)ccc1OCC(=O)Nc1cccc([N+](=O)[O-])c1	·	-1%	-6%	-7%	·	·	·	-4%
CCC1(C(=O)OC)CCc2c(cc(OC)c3ccccc23)C1=O (stereo not given)	-2%[46.1 µM]	0%	-4%	7%	?	·	·	-7%
C[C@@H](CN1C(=O)C(=O)NC[C@@H]1Cc1ccc(O)cc1)NC(=O)Cc1ccccc1	·	1%	-2%	5%	·	·	·	-7%
CCn1c(CSc2nc3ccccc3s2)nc2ccccc21	0%	?	-37%	?	?	-8.3%	-15%	-135%
COCCN1C(=O)c2[nH]nc(-c3ccccc3O)c2C1c1ccc(OC)cc1 (stereo not given)	?	-10%	0%	-7%	-4%	·	·	-7%
O=C(Nc1cccc(NC(=O)c2cccs2)c1)c1ccc(F)cc1	-23%[46.1 µM]	9%	1%	-11%	?	·	·	2%
COc1cc(NC(=O)c2cc(S(=O)(=O)N3CCc4ccccc43)cn2C)cc(OC)c1OC	27%&-8%[46.1 µM]	17%&-23%	0%	-1%	-3%&-3%[46.1 µM]	-2.3%	-4%	-20%
CC(O)CNC(=O)Cc1cc(=O)[nH]c(=O)[nH]1 (stereo not given)	·	4%	1%	-6%	·	·	·	4%
CC1(C)SC2c3ccccc3C(=O)N2[C@@H]1C(=O)O (stereo not given in full)	11%[46.1 µM]	-4%	-2%	1%	-1%[46.1 µM]	·	·	1%
CCN(CC)c1nc(Nc2ccccc2)nc(Oc2ccc(=O)[nH]n2)n1	6%	-18%	0%	14%	?	-4.5%	-7%	-8%
Cc1cccc(-c2noc(-c3ccc(N4CCOCC4)c([N+](=O)[O-])c3)n2)c1	3%[46.1 µM]	1%	·	·	?	-1.6%	7%	·

2 compounds from above, reduced to NS1 inh and SARS PLpro yeast.
SMILES | NS1 inh | SARS PLpro yeast
O=C(NCCCn1ccnc1)c1ccc(OCC(F)(F)F)cc1 | 1% | -1%
CCn1c(C(=O)NCCCN2CCc3ccccc3C2)cc2sccc21 | -2% | -1%

(cont.)
SMILES	Lassa entry inh	StopGo reporter	SARS PLpro yeast	RE007 growth inh	Marburg entry inh	Cruzain inh Det	Cruzain noTriton	NS1 inh
O=C(CCc1ccc(S(=O)(=O)N2CCOCC2)cc1)N1CCN(Cc2ccc3c(c2)OCO3)CC1	22%	?	-7%	-6%	19%	12%	15%	12%
Cc1ccc(Cl)cc1N(C)C(=O)c1cc2c(Cl)nc3ccccc3c2s1	?	-3%	·	·	2%[46.1 µM]	3.1%	1%	·
CCOc1ccc(C(=O)N2CCN=C2SC)cc1OCC	-1%	2%	-1%	13%	0%[46.1 µM]	3.0%	0%	-6%
O=C(Nc1ccccc1Cc1ccccc1)c1oc2ccccc2c1COc1ccccc1	4%	?	-5%	0%	?	-3.2%	?	11%
Nc1cc(C2CCCC2)nn1-c1ccccc1	19%	19%	-18%	-21%	14%	1.8%	-2%	21%
Cc1c(Cl)cccc1N=Cc1ccc([N+](=O)[O-])s1	?	0%	-30%	16µM*	?	-1.5%	-5%	-140%
COc1ccc(N2CCN(S(=O)(=O)c3ccc(OC)c(C(=O)N4CCCCC4)c3)CC2)cc1	·	-27%	-2%	46%	?	·	·	-16%
COC(=O)c1nnn(-c2nonc2N)c1CN1CCc2ccccc21	?	0%	-7%	16%	-6%	-1.2%	1%	-43%
COc1cccc(C2c3c(oc4ccccc4c3=O)C(=O)N2CCCN2CCOCC2)c1 (stereo not given)	-4%	0%	0%	-5%	22%	-0.9%	-4%	-6%

No enrichment for hits; any-hit rate near 4.5%.
